NPYLR7 ag: activates Aedes aegypti NPYLR7 receptor | HEK293T NPYLR7/Galpha15, GCaMP6s calcium fluorescence | activation, % at 10 µM | 0.15% of 270,000 active; in the data active = activation above about 40%;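 also: 0% = vehicle and 100% = reference agonist at the receptor; some compounds past the cut are filed as inactive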
NPYLR7 ag max-min: further read-out of NPYLR7 ag, marked with its call; activation, %; measured here: Max-Min RFU normalised activation; some inactives read as strong as hits;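 span of the calcium signal over five minutes; 0% = vehicle and 100% = native peptide agonist; compound fluorescence can raise it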
* hit, by the source's call; & = joins results of further samples. The list is partial, so the mix of outcomes need not match the whole.

SMILES	NPYLR7 ag	NPYLR7 ag max-min
CC(C)(C)c1nnc(NC(=O)NCc2cccc(OC(F)F)c2)s1	0	-5
CCCCCCN(CCC(=O)NC(C)CC)C(=O)c1ccoc1 (stereo unspecified)	3	0
CN(C)c1nc(N)nc(CSC2=NCCS2)n1	-1	-5
CCC(CC)N(C)S(=O)(=O)c1cc(Br)ccc1Br	-3	-2
Cc1ccc(C)c(OCCn2cnc3ccc([N+](=O)[O-])cc3c2=O)c1	-5	2
Cc1cc(OCC2CN(C(=O)c3ccc(Cl)c(F)c3)CCO2)ccc1Cl (stereo unspecified)	4	-2
N=c1oc2ccc(Br)cc2cc1C(=O)Nc1ccc(F)cc1	2	2
O=C(NCc1csc2c1CCCC2)c1cccc(-n2cnnc2)n1	17	10
Cc1cc(C)c(C(=O)NC(N)=O)c(=N)o1	3	9
CCCCn1c(CN2CCCCC2CC(=O)OCC)cnc1S(=O)(=O)CC (stereo unspecified)	11	6
CCOc1ccc(C(C2Sc3nc(C)nn3C2=O)N2CCC(O)CC2)cc1 (stereo unspecified)	-4	-9
CCOC(=O)C1CCCN(C(=O)CN2CC3=C(C2=O)C(c2ccccc2C(F)(F)F)NC(=O)N3C)C1 (stereo unspecified)	0	7
Cn1c(SCC(=O)N2CCCCC2)nc2c([nH]c3ccccc32)c1=O	0	17
COc1ccc2c(C)cc(=O)oc2c1	-10	-13
C=C(C)C(O)(C(=C)C)c1ccc(CN(Cc2ccccc2C)CC2CCCO2)o1 (stereo unspecified)	-9	-3
CC(C)Oc1nc(-c2cccc(C(F)(F)F)c2)n(-c2cccc(NC(=O)c3ccc(F)cc3)c2)n1	14	14
CC(NC(=O)OCc1ccccc1)C(=O)N1CCOC(COc2ccc(F)cc2)C1 (stereo unspecified)	25	23
COc1ccc(C(C)=O)cc1CN1C(=O)CON=C1c1cccc(C(F)(F)F)c1	9	7
COc1cccc(N2CCN(c3ncccc3S(N)(=O)=O)CC2)c1	5	3
c1ccc(CNc2nccn3ccnc23)cc1	4	1
C=CCN(C)Cc1cc2ccc(SC)cc2[nH]c1=O	11	-3
COc1ccc(CN(CCCn2cncn2)C2CC2)c(OC)c1	2	1
c1ccc(Oc2ccc(-c3nn4c(-c5ccccc5)nnc4s3)cc2)cc1	2	-2
CCOC(=O)C1CCCN(CC(=O)N2N=C(c3cccc(F)c3)CC2c2ccc3c(c2)OCO3)C1 (stereo unspecified)	2	-1
CC(C)(C)NC(=O)c1cccc(NC(=O)N2CCCC2C(=O)N2CCOCC2)c1 (stereo unspecified)	3	0
SMILES	NPYLR7 ag	NPYLR7 ag max-min
O=C(CN1CCc2sccc2C1c1cccc(F)c1)N1CCN(C(=O)Nc2ccccc2F)CC1 (stereo unspecified)	2	-2
O=c1oc2c(Cl)cc(Cl)cc2cc1-c1csc(Nc2ccccc2)n1	-5	-10
O=C(NNc1ccc(Cl)cc1)C1CCCCN1Cc1cnc2ccccn12 (stereo unspecified)	-1	9
CCn1ncnc1CN1CCOc2c(O)cc(-c3nc4ccccc4s3)cc2C1	6	4
CCOC(=O)c1c(C)[nH]c(C(=O)OCC(=O)NC(C)(C)C)c1C	2	0
OCc1ccnc(-c2ccc(F)cc2Cl)c1	16	10
Cc1cc(=O)[nH]c(-n2nc(C)c(CCC(=O)Nc3ccc(OC(F)(F)F)cc3)c2C)n1	2	4
CCc1nc(-c2nccn2CC2CCN(C3CCCC3)CC2)c(C)[nH]1	21	7
COc1ccc(Br)cc1S(=O)(=O)NCc1ccc2c(c1)OCO2	3	5
CCCCCn1cc(C2CCN(C(=O)C(OC(C)=O)c3ccccc3)CC2)c2ccccc21 (stereo unspecified)	2	-1
Cc1noc(C)c1CNC(=O)Cn1c(=O)oc2ccccc21	-1	-1
COc1ccc2[nH]c3c(c2c1)CCN(C(=O)c1sc(Cl)c(Cl)c1Cl)C3COCc1ccccc1 (stereo unspecified)	6	-2
Cc1cc(C)n(-c2cccc(CN3CCC(CCC(=O)Nc4ccccc4)CC3)c2)n1	2	-2
CCn1ccnc1-c1nccn1-c1ccccc1OCc1ccccn1	18	10
COc1cc(-c2nc(C=Nc3ccc(Br)cc3)c(O)o2)cc(OC)c1OC	-5	-6
CC(=O)Nc1ccc(SCCCC(=O)NCCN2CCOCC2)nn1	-2	-2
N#Cc1c(SCc2ccccc2C(F)(F)F)sc2c(O)cc(=O)[nH]c12	-1	-2
COc1ccccc1/C=C/c1nn2c(CCc3ccccc3)nnc2s1	3	3
Cc1ccc(CN2CCN(C(=O)[C@@H]3C[C@@H]4C=C[C@H]3C4)CC2=O)cc1	0	-1
Cc1[nH]c(=O)[nH]c(=O)c1CC(=O)N1CCO[C@@H]2CCCC[C@H]21	2	2
O=C(c1ccc(Cl)nc1)N1CCN(c2nccc(-c3cccc(C(F)(F)F)c3)n2)CC1	-1	6
Cc1cc(CNC(=O)NC(C)c2cnn(C)c2)cc(C)c1F (stereo unspecified)	-5	-6
Cc1cc(Br)ncc1NC(=O)CCc1nc2sc(C)c(C)c2c(=O)[nH]1	2	1
CS(=O)(=O)NCC1CCN(Cc2ccc(-c3ccccn3)cc2)C1 (stereo unspecified)	-4	-5
Cc1nn(CN2CCN(c3cccc(Cl)c3)CC2)c(=S)s1	7	1

A different layout for part of the listing above:
Value order: NPYLR7 ag, NPYLR7 ag max-min
> Cc1cc(C)c(C(=O)NC(N)=O)c(=N)o1
 : 3, 9
> CC(NC(=O)OCc1ccccc1)C(=O)N1CCOC(COc2ccc(F)cc2)C1 (stereo unspecified)
 : 25, 23

Single records (already shown).
O=C(CN1CCc2sccc2C1c1cccc(F)c1)N1CCN(C(=O)Nc2ccccc2F)CC1 (stereo unspecified) across the screens: NPYLR7 ag = 2; NPYLR7 ag max-min = -2
Cc1cc(Br)ncc1NC(=O)CCc1nc2sc(C)c(C)c2c(=O)[nH]1 across the screens: NPYLR7 ag = 2; NPYLR7 ag max-min = 1
COc1ccc2[nH]c3c(c2c1)CCN(C(=O)c1sc(Cl)c(Cl)c1Cl)C3COCc1ccccc1 (stereo unspecified) across the screens: NPYLR7 ag = 6; NPYLR7 ag max-min = -2

Compounds from the list above with a tert-butyl group:
SMILES	NPYLR7 ag	NPYLR7 ag max-min
CC(C)(C)c1nnc(NC(=O)NCc2cccc(OC(F)F)c2)s1	0	-5
CC(C)(C)NC(=O)c1cccc(NC(=O)N2CCCC2C(=O)N2CCOCC2)c1 (stereo unspecified)	3	0
CCOC(=O)c1c(C)[nH]c(C(=O)OCC(=O)NC(C)(C)C)c1C	2	0

(next part)
SMILES	NPYLR7 ag	NPYLR7 ag max-min
CC(Cc1ccc(O)cc1)N(C)C(=O)NCc1cccnc1 (stereo unspecified)	12	9
O=S(=O)(Nc1ccc(F)cc1C(F)(F)F)c1cccnc1	0	0
CSc1ncccc1C(=O)N1CCCC(CCC(=O)Nc2ccc(F)cc2C)C1 (stereo unspecified)	2	-4
COC(=O)c1ccc(C(C)n2nnc(-c3ccc(C(N)=O)cc3)n2)o1 (stereo unspecified)	1	20
CC12CC(NC(=O)N1c1cccc(C(=O)O)c1)c1ccccc1O2 (stereo unspecified)	-8	-11
CCC(C)N(Cc1csc(COc2c(OC)cccc2OC)n1)C(=O)c1ccco1 (stereo unspecified)	-12	2
CC(=O)c1cc(CN(C)CC2CCN(Cc3ccc(C)o3)CC2)cs1	-2	-7
NC(=O)c1ccc(OCc2cc(Cl)c3c(c2)OCO3)cc1	-22	-22
COc1ccc(/C=C/CN2CCC(C(=O)NC(c3ccc(OC)cc3)c3ccccn3)CC2)cc1 (stereo unspecified)	7	10
COC(=O)c1ccc(NC(=O)CSc2nc3[nH]ncc3c(=O)[nH]2)cc1	-1	-3
COc1ccc(Cc2nnc(N(C)c3ccccc3)[nH]c2=O)cc1	10	5
CCN(Cc1ccc(Cl)c(Cl)c1)c1c(N)n(Cc2ccccc2)c(=O)[nH]c1=O	0	11
CCOc1ccc(NC(=O)N(Cc2c(C)nn(-c3cccc(F)c3)c2N2CCN(CC)CC2)C2CC2)cc1	16	23
CN(C1CCCCC1)S(=O)(=O)C1CCS(=O)(=O)C1 (stereo unspecified)	0	-3
COc1ccc2c(c1)OCC(C(=O)N1CCC(c3ccccc3)C1C)C2 (stereo unspecified)	5	3
Cc1ccc(N(CC(=O)NC2CCCC2)S(=O)(=O)c2ccc(F)cc2)cc1	5	6
CCC(Sc1nnc(NC2CC2)s1)c1ccc(Cl)cc1 (stereo unspecified)	7	5
COc1ccc(CCOC(=O)C2CCCCN2C(=O)CCCCCNC(=O)OCc2ccccc2)cc1OC (stereo unspecified)	-6	-8
CCCCCn1cc(C2CCN(S(=O)(=O)c3ccc(OC)c(OC)c3)CC2)c2ccccc21	8	-3
CCOc1ccc(C2c3[nH]c4ccccc4c3CCN2C(=O)c2cc(C3CC3)[nH]n2)cc1 (stereo unspecified)	0	-2
O=c1cc(CO)oc(C(c2ccc3c(c2)OCO3)c2oc(CO)cc(=O)c2O)c1O	-3	12
COc1ccccc1/C=C/CN1CC[C@H](O)C[C@@H]1C(=O)O	18	14
COCCN1C(=O)N(CCc2ccccc2)C(=O)C12CCN(C1CCSC1)CC2 (stereo unspecified)	10	2
CN(C(=O)c1ccc(Cl)cc1)C(c1ccc(F)cc1)C1CC1 (stereo unspecified)	-1	-2
CCCS(=O)(=O)NCCc1cc2cc(C)c(C)cc2[nH]c1=O	-2	-2
SMILES	NPYLR7 ag	NPYLR7 ag max-min
Cc1nnc(SCCN2CCOCC2)c2nn(-c3ccccc3Cl)c(C)c12	4	4
N#Cc1ccc(C(=O)NCc2ccccc2CN2CCCC2)cc1	6	6
O=C(CSc1nc2c([nH]c3ccccc32)c(=O)n1-c1ccc(Cl)cc1)NCC1CCCO1 (stereo unspecified)	1	20
COc1cn(CC(=O)NCCc2ccccc2)c(CN2CCN(c3ccccc3)CC2)cc1=O	-1	-1
O=C(c1ccccc1NS(=O)(=O)c1cc(Cl)sc1Cl)N1CCCCC1	7	4
O=C(CCl)Nc1cccc(-c2nnc3n2CCCCC3)c1	19	10
BrCc1cc(CBr)c2ccccc2c1	0	-1
Cc1ccc(-n2nnn(C(F)F)c2=S)c(C)c1	-7	-13
COc1ccc(CCn2c(C)cc(C(=O)Cn3ccccc3=O)c2C)cc1	1	-5
COc1ccc(OC)c(C2CC(c3ccc(Br)cc3)=Nc3nnnn32)c1 (stereo unspecified)	4	4
NCCc1ccc(O)c(O)c1	10&-5&-4&-3&-2&-1	-2&-9&-9&-6&0&-27
COCCN(CC(=O)N1CCc2sccc2C1COc1cccc(OC)c1)C(=O)c1cccs1 (stereo unspecified)	-4	-3
OCC1CCCCN1CCNC1CCSCC1 (stereo unspecified)	5	3
COc1ccc(CC(=O)NC(C2=CCCN(C)C2)C(C)C)cc1 (stereo unspecified)	-4	-6
COc1cc2c(cc1OC)C(CNC(=O)Cc1ccccc1)N(Cc1ccc(F)cc1)CC2 (stereo unspecified)	-7	-2
CCCCn1ccnc1C(=O)c1cc(Cl)cc(Cl)c1	10	6
CSc1nc(C)cc(-c2ccco2)c1C#N	5	-3
COc1cccc2c1OCCCN(S(=O)(=O)NCc1ccccc1)C2	-2	-8
COc1cc(NC(=O)CNC[C@H]2CCCC[C@H]2O)cc(OC)c1	-6	-8
CCn1nc(C(C)C)cc1C(=O)Nc1cc(C)nc(C(C)C)n1	-1&3	-2&1
COc1ccc(-c2cc(C(F)(F)F)n3nc(C(=O)NCCCn4ccnc4)cc3n2)cc1	-2	-16
O=C(CCCn1cncn1)N1CCCC(CCc2ccccc2F)C1 (stereo unspecified)	1	-1
CC1C(=O)N(c2ccc(Oc3ccccc3)cc2)CCN1C(=O)c1ccccc1Cl (stereo unspecified)	-9	-3
O=C(c1ccc(OC2CCN(Cc3ccccn3)CC2)cc1)N1CCCC1c1nccs1 (stereo unspecified)	13	8
CN1C(=O)NC(=O)/C(=C\c2ccc(Cl)cc2Cl)C1=O	6	4
SMILES	NPYLR7 ag	NPYLR7 ag max-min
Cc1ccccc1-n1c(C)cc(C(=O)Cn2nc(C)c(C)c(C#N)c2=O)c1C	1	-2
CN(C)c1ncccc1CNC(=O)c1cccc2cccnc12	6	4
O=C(Nc1cccc(Br)c1)N(CC(=O)N1c2ccccc2-n2cccc2C1c1ccc(Cl)cc1)C1CC1 (stereo unspecified)	3	13
C[C@H](C(=O)NCCN1CCOCC1)N1Cc2ccc(N3CCOCC3)nc2C1=O	9	5
Cc1ccc(C)c(OCCCC(C)(C)C(=O)NC(c2ccc(F)cc2)c2ccc(SCc3ccccc3)cc2)c1 (stereo unspecified)	-7	-12
C=CCN1CCc2cc(OC)c(OC)cc2C1CNS(=O)(=O)c1ccccc1 (stereo unspecified)	-3	2
O=S(=O)(NCCc1csc2nc(-c3cccs3)nn12)c1ccc(Cl)s1	3	3
COc1cccc(Cc2[nH]nc3ccnc(-c4cccc(O)c4)c23)c1	1	0
COc1ccc(Nc2ncnc3sc4c(c23)CCC(C)C4)cc1 (stereo unspecified)	1	1

Random excerpt: 3 entries already listed
SMILES	NPYLR7 ag	NPYLR7 ag max-min
O=C(CSc1nc2c([nH]c3ccccc32)c(=O)n1-c1ccc(Cl)cc1)NCC1CCCO1 (stereo unspecified)	1	20
Cc1ccc(C)c(OCCn2cnc3ccc([N+](=O)[O-])cc3c2=O)c1	-5	2
Cc1cc(C)n(-c2cccc(CN3CCC(CCC(=O)Nc4ccccc4)CC3)c2)n1	2	-2
